UCH37 DUB inh: inhibitors of human UCH37 deubiquitinase, primary screen, biochemical, Ub-AMC cleavage, fluorescence; Ubiquitin carboxyl-terminal hydrolase isozyme L5 (Homo sapiens), Q9Y5K5; purified proteasome/UCH37; inhibition, % (test concentration not listed); actives 0.33% (n = 330,000);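 active = mean of two replicates above 20%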;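 also: 0% = compound-free wells with enzyme and 100% = wells lacking proteasome; stock transfer was 100 nL into about 20 µL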
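Schedule: 30 min plus 25 min, room temperature / Material: human UCH37 within purified proteasomes / Technique: AMC fluorescence intensity at 355/460 nm / Buffer or medium: pH 7.4 Tris-HCl (50 mM) with ovalbumin, ATP-MgCl2, DTT / Controls: wells without proteasome as full block, compound-free enzyme plus substrate as uninhibited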
Ecoli growth: E. coli growth inhibition, primary screen, OD600; Escherichia coli growth, 23 h; active compounds read low; OD600 absorbance (concentration not given with the values); AID 1053175, 2014; actives 0.21% (n = 330,000);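 active = OD600 absorbance below the run mean of sample wells minus 3.6 SD, in any replicate, cut at about 0.56 in these data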;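 also: stock transfer was 300 nL into about 60 µL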
Ecoli rRNA inh: reduced GFP signal of wild-type E. coli, primary screen, bacterial rRNA inhibitor project, GFP/RFP fluorescence, OD600, single point. GFP signal change (wild-type ribosome), % (no concentration beside the values). AID 720706, 2013. E. coli WT GFP vs humanized-ribosome RFP mutants, 24 h; active compounds read low; DMSO median 0, no signal -100. actives 1.6% (n = 350,000);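 active = significant combined selectivity score with lowered wild-type GFP, culture density cut under 30%, mutant RFP and density less affected; inactive = any of these conditions unmet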; also: one replicate is shown; some compounds called inactive have numbers as strong as hits
ALR inh: inhibitors of human ALR sulfhydryl oxidase, primary screen, biochemical, H2O2 detection, HRP-luminol luminescence, single point. AID 485317, 2010. FAD-linked sulfhydryl oxidase ALR (Homo sapiens), P55789. purified ALR, DTT oxidation. inhibition, % (no concentration beside the values). actives 3.8% (n = 290,000);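 active = mean and each replicate at 75% or more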;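 also: stock transfer was 7.5 nL into about 7.5 µL; 0% = neutral wells and 100% = wells with inactivated enzyme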
Target sequence (P55789 whole entry, looked up): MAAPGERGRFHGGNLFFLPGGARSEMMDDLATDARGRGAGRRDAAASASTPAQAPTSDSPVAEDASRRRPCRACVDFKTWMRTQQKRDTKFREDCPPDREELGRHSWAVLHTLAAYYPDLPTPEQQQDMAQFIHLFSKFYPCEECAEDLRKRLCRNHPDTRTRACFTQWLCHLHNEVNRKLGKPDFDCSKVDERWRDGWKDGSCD
FGF22 binding: binders of human FGF22 protein, primary screen, FGF22 synaptogenesis inhibitor project, biophysical, thermal shift, single point; recombinant FGF22 thermal shift, SYPRO orange fluorescence; percent of sucrose octasulfate shift, DMSO zero; calls only at 9.99 µM; AID 651658, 2012; actives 1.5% (n = 340,000); Fibroblast growth factor 22 (Homo sapiens), Q9HCT0;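 active = melting point raised past a set limit in the mean and every replicate; three in four hits are not shown here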
Target sequence (Q9HCT0 whole entry, looked up): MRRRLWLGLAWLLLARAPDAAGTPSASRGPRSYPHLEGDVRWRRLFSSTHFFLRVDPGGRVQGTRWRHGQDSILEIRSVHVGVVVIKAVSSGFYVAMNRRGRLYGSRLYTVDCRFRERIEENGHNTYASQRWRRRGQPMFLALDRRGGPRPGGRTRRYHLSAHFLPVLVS
HNF4A DNA FP: change in binding of human HNF4A to DNA, primary screen, biochemical, fluorescence polarization, FITC-DNA; Hepatocyte nuclear factor 4-alpha (Homo sapiens), P41235; 1 h; activity change, % at 10 µM; actives 0.3% (n = 360,000); AID 1224865, 2016; in the data active = activity change above about 30%, passing the limit was not always enough;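 also: controls were the assay level and a saturating level of protein; the project sought stronger binding though the title names inhibitors; some compounds called inactive have numbers as strong as hits; positive values seem to mean higher polarization but the record does not say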
Target sequence (P41235 whole entry, looked up): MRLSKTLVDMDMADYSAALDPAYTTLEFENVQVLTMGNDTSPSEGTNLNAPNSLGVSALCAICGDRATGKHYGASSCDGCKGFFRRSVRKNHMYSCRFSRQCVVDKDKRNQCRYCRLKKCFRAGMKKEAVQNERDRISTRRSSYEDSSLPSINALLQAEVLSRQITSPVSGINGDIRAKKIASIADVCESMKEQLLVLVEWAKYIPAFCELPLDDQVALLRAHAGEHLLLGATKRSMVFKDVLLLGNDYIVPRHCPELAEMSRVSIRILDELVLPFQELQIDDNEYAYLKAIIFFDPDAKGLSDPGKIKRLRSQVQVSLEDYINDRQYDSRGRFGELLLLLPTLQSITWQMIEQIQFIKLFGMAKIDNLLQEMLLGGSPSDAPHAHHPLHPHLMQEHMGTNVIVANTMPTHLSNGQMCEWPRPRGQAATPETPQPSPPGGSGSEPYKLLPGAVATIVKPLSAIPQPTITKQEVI
B2AR ag: beta2AR agonists driving receptor internalization, primary screen, cell-based, FAP fluorogen, flow cytometry; Beta-2 adrenergic receptor (Homo sapiens), P07550; Am2.2-beta2AR cells; reference of the scale not given here; response, % (test concentration not listed); actives 0.43% (n = 340,000); AID 504454, 2011;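 active = response above a set limit, near 3 SD of response in nonfluorescent compounds, cut at about 42% in these data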;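 also: stock transfer was 100 nL into about 11 µL; a reference agonist was the positive control; negative values mostly stem from fluorescent compounds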
Ecoli rRNA inh OD600: recorded beside Ecoli rRNA inh, whose call it bears; OD600 change, %; measured here: OD600 growth;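 optical density of the mix in the first replicate; 0 = DMSO median and -100 = no signal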
Ecoli rRNA inh RFP: further read-out of Ecoli rRNA inh, marked with its call; RFP signal change, %; measured here: RFP humanized mutant strains;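 first replicate; 0 = DMSO median and -100 = no signal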
Numbers without * were called inactive; i = inactive; . = no result given; & = joins results of further samples. An excerpt; the hit share may differ from the screen's.

item	Compound	B2AR ag	HNF4A DNA FP	Ecoli growth	ALR inh	UCH37 DUB inh	Ecoli rRNA inh	FGF22 binding	Ecoli rRNA inh RFP	Ecoli rRNA inh OD600
1	O=C(c1cc2ccccc2oc1=O)N(Cc1ccccc1)C1CCS(=O)(=O)C1 (stereo not drawn)	-6	0.8	0.72	-2	-0.5	.	.	.	.
2	CC(=O)N1CCCc2cc(S(=O)(=O)NC(C(=O)NC(C)c3ccccc3)C(C)C)ccc21 (stereo not drawn)	15	5.0	0.73	-6	-0.3	.	.	.	.
3	Cc1ccc(C)c(C(=O)COC(=O)c2ccc(C)c(S(=O)(=O)N3CCOCC3)c2)c1	0	-1.0	0.68	1	1.2	-9	i	2.2	-16
4	Cc1ccc2cccc(CC(=O)NN)c2c1	.	-3.5	.	.	.	-2	i	3.6	-9
5	Cn1c(CS(=O)Cc2c(Cl)cccc2Cl)nnc1SCc1ccc(Cl)cc1 (stereo not drawn)	1	-2.2	0.7	-20	3.9	.	.	.	.
6	Nc1cc(=O)[nH]c(SCC(=O)N2CCc3ccccc3C2)n1	1	2.1	0.7	4	3.6	.	.	.	.
7	CCOCCOC(=O)CCSc1n[nH]c(=O)[nH]c1=O	-3	0.2	0.69	-7	-0.3	1	i	-1.1	-9
8	C=CCC(NC(=O)c1ccc(C#N)cc1)C(=O)NCCC (stereo not drawn)	-5	1.1	0.62	1	-0.4	4	i	-3.3	6
9	Cc1cccc(NC(=O)Nc2cccc(F)c2)n1	1	-0.3	0.71	-3	-0.8	.	.	.	.
10	CN1c2ccccc2-c2nc3ccccc3n2C1c1cccs1 (stereo not drawn)	15	-0.2	0.7	4	i	-22	i	-14	-21
11	O=C(c1ccc(Br)cc1)N(c1ccccn1)C1CCCCC1	-6	-3.2	0.7	4	0.7	-6	i	-9.1	1
12	COC/C=C/C1=CC2=CC(=O)C(C)(OC(=O)C3CCCC3)C(=O)C2=CO1 (stereo not drawn)	-2	1.9	.	6	1.2	2	i	7.1	1
13	O=C(CCn1[nH]c(=O)c2ccccc2c1=O)OC1CCCCC1	4	-3.6	0.66	-1	3.0	-5	i	-1.7	-2
14	CCOC(=O)c1c(C)[nH]c(C)c1C(=O)COC(=O)c1cc(OC)c(OC)cc1OC	0	3.9	0.66	3	0.5	-5	i	-0.3	-7
15	C=CCNC(=O)c1ccncc1	1	2.3	0.69	-1	0.9	10	i	-1.3	3
16	CN(Cc1ccccc1)C(=O)COc1ccc(Br)cc1Cl	-3	-0.5	0.71	-3	3.0	-24	i	7.8	-28
17	COc1ccc(CCNC(=O)COC(=O)c2cccs2)cc1OC	8	1.0	0.68	-11	3.7	1	i	-0.5	6
18	COc1cc([C@H]2Oc3c(OC)cc(CCCO[C@@H]4O[C@H](CO)[C@@H](O)[C@H](O)[C@H]4O)cc3[C@@H]2CO)ccc1O	2	2.7	0.67	.	2.3	1	i	15	11
19	O=C(N/N=C/c1ccc(O)cc1)Nc1cccc2nsnc12	20	6.9	.	41	.	-31*	i	-3.0*	-12*
20	CC1CCCCC1NC(=O)COC(=O)COc1ccccc1Cl (stereo not drawn)	-12	0.3	0.68	-13	-0.8	20	i	4.6	21
21	O=C(CC1S/C(=N/N=C/c2cccnc2)NC1=O)Nc1ccccc1 (stereo not drawn)	4	2.4	.	.	.	9	i	-0.7	2
22	COC(=O)[C@@]12CCCCN1[C@H](c1ccc(SC3CCCCC3)c(OC)c1)[C@@H]1C(=O)N(C)C(=O)[C@@H]12	-2	0.1	.	-2	5.1	10	i	3.3	-6
23	COc1ccc(Cl)cc1NC(=O)C1CC(=O)N(C2CCCCC2)C1 (stereo not drawn)	0	1.2	0.69	-22	5.9	3	i	4.0	1
24	COc1ccccc1C(=O)NC(=S)N1CCCc2ccccc21	-4	-6.0	0.73	6	-1.2	-6	i	2.4	1
25	CCOC(=O)Cn1c(=S)[nH]c2c(oc3ccc(Cl)cc32)c1=O	1	-0.8	0.65	96*	3.0	.	.	.	.
26	CNC(=O)c1ccc(CN(C)C(=O)c2cc(C3CC3)nc3c2cnn3C(C)C)cc1	.	-0.3	.	.	.	0	i	-2.7	11
27	COc1ccc(-c2csc(NC(=O)Nc3ccccc3)n2)cc1	22	1.0	0.65	0	2.2	-10	i	2.3	-3
28	CN(C)C(=O)c1cn(-c2ccc(Cl)cc2)c(=O)c2ccccc12	-1	-0.6	0.69	-25	0.6	7	i	-2.5	5
29	CCC(=O)N1c2ccc(S(=O)(=O)NCCc3ccc(OC)c(OC)c3)cc2CC1C (stereo not drawn)	-13	9.6	0.61	24	0.3	-11	i	-4.2	-5
30	Cc1cc(NC2CCCCC2)nc(-c2ccccc2O)n1	1	2.0	0.59	-2	-7.3	.	.	.	.

A draw from above in order of SMILES length, highest first.
item	Compound	B2AR ag	HNF4A DNA FP	Ecoli growth	ALR inh	UCH37 DUB inh	Ecoli rRNA inh	FGF22 binding	Ecoli rRNA inh RFP	Ecoli rRNA inh OD600
29	CCC(=O)N1c2ccc(S(=O)(=O)NCCc3ccc(OC)c(OC)c3)cc2CC1C (stereo not drawn)	-13	9.6	0.61	24	0.3	-11	i	-4.2	-5
5	Cn1c(CS(=O)Cc2c(Cl)cccc2Cl)nnc1SCc1ccc(Cl)cc1 (stereo not drawn)	1	-2.2	0.7	-20	3.9	.	.	.	.
27	COc1ccc(-c2csc(NC(=O)Nc3ccccc3)n2)cc1	22	1.0	0.65	0	2.2	-10	i	2.3	-3
20	CC1CCCCC1NC(=O)COC(=O)COc1ccccc1Cl (stereo not drawn)	-12	0.3	0.68	-13	-0.8	20	i	4.6	21
15	C=CCNC(=O)c1ccncc1	1	2.3	0.69	-1	0.9	10	i	-1.3	3

Carrying on.
item	Compound	B2AR ag	HNF4A DNA FP	Ecoli growth	ALR inh	UCH37 DUB inh	Ecoli rRNA inh	FGF22 binding	Ecoli rRNA inh RFP	Ecoli rRNA inh OD600
31	Cc1c(C(=O)NCCCN2CCOCC2)sc2nc(-c3ccccc3)cn12	.	.	0.71	-28	1.3	0	i	0.7	7
32	CC(=O)N1N=C(c2ccco2)CC1c1cccs1 (stereo not drawn)	6	3.2	0.66	-6	-0.7	.	.	.	.
33	CN1CCN(C(=O)c2cnn3c(C(F)(F)F)cc(-c4cccs4)nc23)CC1	-10	0.9	0.66	.	-75	.	.	.	.
34	Nc1nnc(Cc2ccc(Cl)cc2)s1	-2	-4.3	0.72	-1	-0.4	.	.	.	.
35	CC1(C(=O)Nc2ccc3[nH]ncc3c2)CCN1C(=O)CCc1ccccc1 (stereo not drawn)	.	0.8	.	.	.	-6	i	-3.9	-8
36	Cc1cc(NC(=O)CSc2nnnn2-c2ccc(F)cc2)no1	-5	2.7	0.68	-2	0.2	2	.	-0.5	6
37	COc1ccccc1CC(=O)OCC(=O)N1CCN(c2ccc(F)cc2)CC1	-6	-6.9	0.69	56	3.7	-26	i	-1.3	-19
38	CCOc1ccccc1C=NNc1ccc([N+](=O)[O-])cn1	9	14	0.7	.	-0.6	10	i	0.0	7
39	Cc1c(N(C(=O)CNC(=O)c2ccccc2)C2(C(=O)NC3CCCC3)CCCCC2)c(=O)n(-c2ccccc2)n1C	6	1.8	0.72	.	1.7	3	i	1.0	4
40	O=C(Nc1ccc(Cl)cc1)Nc1cccc(C(=O)O)c1	-5	-1.5	0.64	-4	-1.4	-9	i	-1.5	-1
41	CCOC(=O)N1CCN(C(=O)/C(=C/c2cccs2)NC(=O)c2ccc(OC)c(OC)c2)CC1	41	-0.2	0.68	7	5.8	-2	i	0.7	-1
42	C/C(=N\NC(=O)c1cccnc1)c1ccc(-c2ccccc2)cc1	-2	0.6	.	-26	.	.	i	.	.
43	CNC(=O)C1=NCCCc2cc(OC)c(OC)cc21	-1	-0.2	0.68	0	2.9	.	.	.	.
44	Cc1ccnc(NS(=O)(=O)c2ccc(NC(=O)c3cc(-c4ccccc4)nc4ccccc34)cc2)n1	2	8.3	0.69	4	0.9	-8	i	-5.2	-10
45	COc1ccc(C(=O)Nc2nnc(Cc3ccccc3)s2)c(OC)c1	5	1.6	.	4	.	16	i	0.5	13
46	O=C(Nc1nnc(CC(=O)N2CCOCC2)s1)C1COc2ccccc2O1 (stereo not drawn)	-5	1.0	0.72	5	1.8	.	.	.	.
47	Cc1occc1C(=O)NCCCc1ccccc1	4	-1.6	0.65	19	1.1	.	.	.	.
48	Cc1cccc(-c2cc3nc4c(c(NCc5ccco5)n3n2)CCCC4)c1	3	5.0	0.65	-8	-42	.	.	.	.
49	CC(NC(=O)C1CCCN1S(=O)(=O)c1ccc2c(c1)n(C)c(=O)c(=O)n2C)c1ccccc1 (stereo not drawn)	4	12	0.66	-4	-1.7	13	i	-3.5	7
50	Cc1cc(=S)c2cccc(C)c2[nH]1	.	.	0.68	-7	7.0	13	i	0.4	9
51	COc1c(Cl)cc(Br)c(OC)c1C(=O)NC(=O)Nc1nc(C)cc(C)n1	-2	-1.2	0.68	5	6.5	7	i	-0.4	9
52	COc1ccc(CCc2nnc(CCC(=O)NCCc3ncccc3C)o2)cc1	-3	-1.4	0.7	-22	3.2	12	i	1.3	5
53	COc1cc(NC(=O)CN(C)S(=O)(=O)c2ccc3c(c2)CCC(=O)N3)cc(OC)c1	5	-1.6	0.75	0	4.2	2	i	0.6	0
54	COc1cccc(NC(=O)N(C)C[C@@H]2OCc3cn(nn3)CCCC(=O)N([C@H](C)CO)C[C@H]2C)c1	.	2.9	.	.	.	5&-1	i	-2.7&1.6	14&1
55	Cc1ccc(C(=O)N2CCC3(CC2)Oc2ccc(Cl)cc2C(=O)C32CC(c3ccc(Cl)cc3)=NO2)s1 (stereo not drawn)	0	6.3	0.69	.	1.5	7	i	-12	7
56	COc1ccc(F)cc1C(=O)C1CCCN(C(=O)Cc2c(C)noc2C)C1 (stereo not drawn)	-3	-1.2	0.68	7	-4.4	9	i	-10	4

Compound activity (PubChem)
